Sa ugtP lethal: growth inhibition of ugtP-null S. aureus, primary screen, RN4220 ugtP deletion, OD600 | 16 h; some inactives read as strong as hits | growth inhibition, % (no concentration beside the values) | 330,000 tested, 0.54% active | AID 1259309, 2017;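 active = z-score under -3 and OD600 up to 0.15 on both plates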;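 also: plate controls were untreated wells for no effect and antibiotic for full effect; wells of about 80 µL received 100 nL stock; the first replicate is given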
Bead autofluor: compound fluorescence in toxin protease inhibitor counterscreen; 360,000 tested, 3.1% active; AID 624483; compound autofluorescence counterscreen, microsphere flow cytometry; hits give high values; fluorescence intensity (test concentration not listed);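 active = at least 3 SD above the mean of all compounds, about 16000 in these data; inconclusive = too few beads counted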;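 also: 100 nL of 1 mM stock went into each well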
PrP 5UTR inh: inhibition of PrP 5' UTR reporter expression | inhibition, % (concentration not given with the values) | AID 488862, 2010 | cell-based PrP 5' UTR mRNA reporter, plate reader | 340,000 tested, 0.35% active;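 active = every replicate at 50% or more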;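 also: 0 = median of the neutral control wells; tested in H4 reporter cells; numbers are from one replicate; inactives centre near -14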
Mtb hypoxia inh: PubChem AID 1159583; M. tuberculosis hypoxia-regulated fluorescent reporter, fluorescence; fluorescence inhibition, % (no concentration beside the values); 300,000 tested, 0.1% active;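 active = 35 to 45% if threefold the growth effect, above 45% if 1.5-fold the growth effect; inactive = the rest, general growth blockers included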;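 also: wells of about 50 µL received 100 nL stock; 0% = vehicle wells and 100% = reference inhibitor wells; whole bacteria with a GFP reporter of the hypoxia response; strong numbers were not always called active; many hits fall short of the cut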
Sa RN4220 lethal: growth inhibition of S. aureus RN4220, primary screen, OD600; 16 h; inhibition, % (concentration not given with the values); 330,000 tested, 0.33% active;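 active = z-score of -3 or lower and OD600 up to 0.18 on both plates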;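 also: plate controls were untreated cells for no effect and reference antibiotic for full effect; stock transfer was 100 nL into about 80 µL; one replicate is shown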
BJeLR lethal: MLPCN primary cell-based screen for lethality selective to Ras in HRASV12 cells; BJeLR (HRASV12) viability, CellTiter-Glo ATP luminescence, 48 h; reference of the scale not given here; inhibition, % (no concentration beside the values); 300,000 tested, 0.17% active; AID 1554, 2009;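 active = replicate mean above 50%; inconclusive = above 50% but judged a plate artefact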;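 also: 50 nL library stock added to about 25 µL; numbers are from one replicate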
Mtb hypoxia inh growth: also measured in Mtb hypoxia inh; calls as there; growth inhibition, %; measured here: M. tuberculosis growth (absorbance);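 0% = vehicle and 100% = reference antibiotic; read after six days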
Starred values were filed as active, the others as inactive; ? = inconclusive; / = no result given.

The first 4 entries, to show the layout:
SMILES | Sa ugtP lethal | Bead autofluor | PrP 5UTR inh | Mtb hypoxia inh | Mtb hypoxia inh growth | Sa RN4220 lethal | BJeLR lethal
CC(C)(C)NC(=O)CN(C(=O)CNC(=O)c1cccs1)c1ccccc1F | 1 | 3926 | -7 | 13 | 3 | 3.7 | -14
O=C(CN(CCc1ccccc1)C(=O)c1csnn1)NCc1ccc(F)cc1 | -2 | 4343 | -22 | 14 | -1 | 0.3 | 7
CN(CC(CC(=O)Nc1nncs1)c1ccccc1)S(=O)(=O)c1ccccc1 (configuration not stated) | 2 | 5995 | -22 | / | / | 0.5 | -8
CCn1c(SCC(=O)N/N=C/C(C)=C/c2ccco2)nnc1-c1ccccc1 | / | 10015 | -18 | / | / | / | 1

Results, from the start:
SMILES | Sa ugtP lethal | Bead autofluor | PrP 5UTR inh | Mtb hypoxia inh | Mtb hypoxia inh growth | Sa RN4220 lethal | BJeLR lethal
CC(C)(C)NC(=O)CN(C(=O)CNC(=O)c1cccs1)c1ccccc1F | 1 | 3926 | -7 | 13 | 3 | 3.7 | -14
O=C(CN(CCc1ccccc1)C(=O)c1csnn1)NCc1ccc(F)cc1 | -2 | 4343 | -22 | 14 | -1 | 0.3 | 7
CN(CC(CC(=O)Nc1nncs1)c1ccccc1)S(=O)(=O)c1ccccc1 (configuration not stated) | 2 | 5995 | -22 | / | / | 0.5 | -8
CCn1c(SCC(=O)N/N=C/C(C)=C/c2ccco2)nnc1-c1ccccc1 | / | 10015 | -18 | / | / | / | 1
CCOc1ccc(N=CC2=C(O)CC(C)(C)CC2=O)cc1 | 7 | 4936 | -56 | -2 | 6 | 3.1 | -2
CC(=O)/C(C(=N)N1CCN(C(c2ccccc2)c2ccccc2)CC1)=C(\C)O | / | 3145 | -10 | / | / | / | -5
COC(=O)c1ccccc1NC(=S)N1CCN(c2ccccn2)CC1 | 1 | 4692 | -34 | 4 | 5 | 0.2 | -2
COc1ccc2[nH]cc(S(=O)(=O)c3ccc(C)cc3)c2c1 | 7 | 4310 | -20 | -8 | 11 | 2.3 | -9
FC(F)(F)c1ccc(C2Nc3cccc4cccc(c34)N2)cc1 | -14 | 3972 | -16 | 2 | 5 | 11 | /
CC(=O)/C(=C/c1ccccc1)C(=O)Nc1ccccc1C | 6 | 1907 | -17 | 17 | -2 | 6.3 | 4
COc1ccccc1NC(=O)C(C)OC(=O)/C=C/c1ccc2ccccc2n1 (configuration not stated) | 0 | ? | -30 | 0 | 10 | -2.1 | -6
c1cncc(-c2ccc3ncnc(NCc4ccc5c(c4)OCO5)c3c2)c1 | 1 | 4210 | -23 | 9 | 9 | 8.9 | /
Cc1ccc(NNC(=O)C2CCC2)cc1C | 1 | 5257 | -59 | 16 | 14 | 2.0 | -8
CCN(CC)C(=O)Oc1ccc(Br)c2ccccc12 | 42 | 2171 | -15 | 0 | 8 | 0.4 | 2
CC(=O)c1sc(NC(=O)C(C)Oc2ccc3c(C)cc(=O)oc3c2)nc1C (configuration not stated) | 11 | 5883 | -11 | 11 | -2 | 3.8 | -4
COc1ccc(CNC(=O)C2CCC(CNS(=O)(=O)c3cccs3)CC2)cc1 (configuration not stated) | 2 | 3828 | -22 | 9 | 7 | 3.8 | -8
CC(C)(CN1CCN(Cc2ccccc2)CC1)NS(=O)(=O)c1ccc(Cl)cc1 | 9 | 4559 | -5 | 5 | 4 | 2.3 | -3
COc1ccc(CSCC(=O)NN=C2CCN(C)CC2)cc1 | 2 | 3949 | -22 | -6 | -15 | 0.8 | 4
CCOc1ccc(CO/N=C/c2c(C)[nH]c(=O)[nH]c2=O)cc1 | / | 4176 | 28 | / | / | / | 3
NC(N)=NS(=O)(=O)c1ccc(NC(=S)NC(=O)c2ccc(Br)cc2)cc1 | / | 3877 | -10 | / | / | / | 5
N#Cc1ccc(C(=O)Nc2cc(S(=O)(=O)Nc3ccc(Cl)cc3)ccc2N2CCCCC2)cc1 | -29 | 1976 | -5 | -2 | -2 | -0.1 | 0
COc1ccccc1NC(=O)C1CCCN(S(=O)(=O)c2cccc3nsnc23)C1 (configuration not stated) | -4 | 4375 | -9 | / | / | 0.6 | -11
CN(Cc1ccccc1)C(=O)c1cccc(NC(=O)Cc2ccc(NC(=O)C3CCN(C(=O)C4CCCC4)CC3)cc2)c1 | 8 | 3950 | -22 | -1 | 2 | 0.1 | /
CC1CC(=O)N(CC(=O)Nc2ccc(Br)cc2)c2ccccc2S1(=O)=O (configuration not stated) | 2 | 5196 | -12 | -5 | 2 | 0.6 | 1
c1ccc(-c2nc(CSc3nnnn3-c3ccccc3)cs2)cc1 | 10 | 4577 | -13 | 6 | 0 | 9.7 | 2
CC(Nc1nc(-c2ccc(F)cc2)cs1)c1nc2cc(Cl)c(Cl)cc2n1CCOCCO (configuration not stated) | 0 | 2719 | 0 | 16 | 6 | -5.5 | 7
CC1CC=CC2C1C(=O)N(Cc1ccccc1)C2c1ccc(F)c(-c2ccc(N(C)C)cc2)c1 (configuration not stated) | 3 | / | / | 4 | 1 | -3.6 | /
O=C1CCN(S(=O)(=O)c2ccccc2)N1 | 5 | 3454 | -7 | -4 | 3 | 3.8 | -1
Cc1ccc(C2CCN(C(=S)NC(C)(C)C)C2)cc1 (configuration not stated) | -4 | 4525 | -53 | -1 | -5 | 2.4 | 10
COc1cc(NC(=O)C2CC(c3ccc(Cl)cc3)=NO2)cc(OC)c1OC (configuration not stated) | / | 4217 | -18 | / | / | / | 7
COc1ccc(CN=C(C#N)C2=C(O)c3ccccc3C2=O)cc1 | 4 | / | -27 | 14 | 15 | 1.4 | -2
Cc1cc(C(C)(C)C)oc1C(=O)N(CC(=O)NC1CCCC1)Cc1ccc(F)cc1 | 0 | 7080 | -11 | 0 | 5 | -2.1 | -4
Cc1ccc(-c2c(C)sc(NC(=O)C3C4CCC(O4)C3C(=O)O)c2C(=O)OC(C)C)cc1 (configuration not stated) | 14 | 3007 | -3 | / | / | 11 | -5
CCN(C(=O)COC(=O)c1cccc(S(=O)(=O)N2CCOCC2)c1)C1CCS(=O)(=O)C1 (configuration not stated) | 5 | 5313 | -18 | 9 | 3 | 1.7 | 6
Clc1ccc(-n2c(SC/C=C/c3ccccc3)nnc2-c2cccnc2)cc1 | -7 | 9553 | -24 | 4 | 6 | 3.5 | 1
Cc1c(C(=O)NCc2nnc(-c3ccccc3)o2)oc2c(F)cccc12 | / | 5350 | -14 | / | / | / | -6
COC(=O)C1=C(C(=O)OC)C2N(C)c3ccccc3[C@@]23CC(C(=O)OC)N(C(=O)CC(C)C)C3=N1 (some centres not stated) | 1 | / | / | 8 | 9 | 0.6 | /
CC(=O)N1c2c(cc(Br)cc2S(=O)(=O)NCc2ccc(C)cc2)CC1C (configuration not stated) | 13 | 3786 | -18 | 14 | 7 | 5.3 | 8
O=C(CNCc1ccccc1Cl)NCc1ccco1 | -4 | 4792 | -8 | 2 | 10 | -0.7 | 2
COc1ccc(OC)c(C=NNC(=O)CSc2cc(C)nc3c(OC)cccc23)c1 | 9 | / | / | 5 | 0 | 8.2 | /
O=C(O)CCC(=O)NNC(=O)c1ccc(-c2ccccc2)cc1 | / | 9516 | 4 | / | / | / | 4
O=C(CCC(=O)Nc1ccccc1)NNC(=O)C(c1ccccc1)c1ccccc1 | 1 | 2408 | -18 | 4 | 3 | 7.8 | -8
CCNC(=S)NN=C(C)c1cccc([N+](=O)[O-])c1 | 10 | / | / | 5 | 4 | 2.0 | /
CC(C)OC(=O)Cn1c(=O)sc2ccccc21 | 5 | ? | -35 | 20 | 3 | 4.2 | 1
COc1cc(/C=C/c2nnc3c4ccccc4ncn23)cc(OC)c1OC | -26 | 2562 | -14 | 0 | 6 | 9.4 | 13
CC(=O)c1ccc(NC(=O)CCNS(=O)(=O)c2cc(Br)cnc2N)cc1 | 1 | 5590 | -25 | 6 | -3 | 1.2 | 8
COC(=O)c1ccc2c(c1)C(C)(C)C(C=Cc1ccc(OC)c(OC)c1OC)=[N+]2C | -7 | / | / | 11 | 15 | 10 | /
Cc1cc(N2CCN(C)CC2)ccc1NC(=O)c1cccc(S(=O)(=O)N2CCc3ccccc3C2)c1 | 0 | 4413 | -11 | 9 | 14 | -9.7 | 1
CCN(CC)CCN(C(=O)c1ccc2ccccc2c1)c1nc2ccc(OC)cc2s1 | 5 | 6257 | -26 | 1 | 1 | -2.6 | -7
CC(C)(C)c1cc(C(=O)NN=Cc2ccc(F)cc2)n(-c2ccccc2)n1 | 7 | / | / | 14 | 19 | 1.0 | /
CC(C)CCn1cnc2c1c(=O)[nH]c(=O)n2Cc1ccccc1 | -2 | 3093 | -1 | 8 | 2 | 0.8 | 2
CCOc1cc(CNCC(O)c2ccccc2)cc(Cl)c1OC (configuration not stated) | 4 | 2453 | -19 | 11 | 9 | 1.6 | -5
CCN(CC)CCN1C(=O)C(O)=C(C(=O)c2cccs2)C1c1ccc(C)o1 (configuration not stated) | 11 | 9028 | -25 | 5 | 0 | 3.8 | 6
CCN1CCN(CCCNC(=O)c2cn(CCOC)c(=O)c3c2c2ccccc2n3C)CC1 | -6 | 11083 | -17 | 2 | 4 | -1.0 | 4
Cc1ccccc1NC(=O)c1cccc(NC(=O)c2ccccc2C(=O)O)c1 | 9 | / | -16 | 14 | 10 | 4.6 | -6
COc1ccc([N+](=O)[O-])cc1C1NN=C(c2cccc3ccccc23)S1 (configuration not stated) | / | 2791 | -21 | / | / | / | 6
CCC(C)NC(=O)c1nn(C)c(=O)c2ccccc12 (configuration not stated) | 10 | 4529 | -6 | 20 | 1 | 5.6 | 9
Cc1ccc(-n2ncc(C(=O)O)c2C2CCN(C(=O)OC(C)(C)C)CC2)cc1 | 1 | 5110 | -24 | / | / | 5.6 | -10
COc1ccccc1OCCCn1c(C)c(C#N)c2ccccc21 | 7 | 4120 | -3 | / | / | 12 | 6
CCn1c2ccccc2c2cc(CNCc3ccc(OC)cc3OC)ccc21 | -1 | 4778 | -23 | -3 | 8 | -1.4 | 5

2 of the compounds above, as labelled records.
SMILES: Cc1c(C(=O)NCc2nnc(-c3ccccc3)o2)oc2c(F)cccc12
  Sa ugtP lethal: /; Bead autofluor: 5350; PrP 5UTR inh: -14; Mtb hypoxia inh: /; Mtb hypoxia inh growth: /; Sa RN4220 lethal: /; BJeLR lethal: -6

SMILES: CCC(C)NC(=O)c1nn(C)c(=O)c2ccccc12 (configuration not stated)
  Sa ugtP lethal: 10; Bead autofluor: 4529; PrP 5UTR inh: -6; Mtb hypoxia inh: 20; Mtb hypoxia inh growth: 1; Sa RN4220 lethal: 5.6; BJeLR lethal: 9

(further entries)
SMILES | Sa ugtP lethal | Bead autofluor | PrP 5UTR inh | Mtb hypoxia inh | Mtb hypoxia inh growth | Sa RN4220 lethal | BJeLR lethal
O=C(CC1CC=CCCCC(=O)OC(c2ccccc2)CNC1=O)NCCO (configuration not stated) | 2 | / | / | 0 | 2 | 1.4 | /
COc1ccccc1Oc1ccc(NC(=O)c2ccccc2C)cc1 | 6 | 2485 | -12 | 12 | 12 | -0.4 | 13
O=c1[nH]c(Nc2ccc3c(c2)OCCO3)nnc1Cc1ccc(Cl)cc1 | 10 | 3323 | -15 | 4 | -2 | -2.4 | 5
CN(c1ccccc1)c1ccc(C=NN2CCOCC2)cc1 | 5 | / | / | 5 | 2 | -3.8 | /
CC(NC(=O)COc1ccc(Br)cc1)C(=O)O (configuration not stated) | -1 | 10444 | -21 | 3 | 15 | 2.7 | 7
CC(=O)NCCC(=O)Nc1nc(-c2ccc3ccccc3c2)cs1 | 10 | 5398 | -16 | 3 | 7 | 3.6 | -5
COc1cccc(OC)c1C(=O)NC(=S)Nc1ccc2oc(=O)ccc2c1 | 1 | 2108 | -5 | -4 | 0 | 3.2 | 4
CN(C)c1ccncc1C(=O)Nc1ccc(F)cc1F | 14 | 4488 | -11 | 11 | 5 | 1.0 | 2
Cc1ccc(S(=O)(=O)NCC(=O)OCC(=O)c2cccs2)cc1 | -5 | / | -6 | 12 | -7 | -2.8 | -8
Cc1ccc(C)c(N2C(=O)CC(Cc3ccccc3)C2=O)c1 (configuration not stated) | 0 | 3859 | -37 | 5 | 6 | 2.6 | -9
Cc1cc(C)c[n+](-c2[nH]c(=O)sc2/C=N/N=C(\[O-])c2cccnc2)c1 | / | 3853 | -11 | / | / | / | -2
COc1ccccc1C(=O)OCC(=O)NC(=O)NC1CCCC1 | -3 | 3540 | -26 | -5 | 5 | -0.6 | /
COCCC(=O)N1CCCC(C(=O)c2ccc(C(F)(F)F)cc2)C1 (configuration not stated) | 2 | 3777 | -41 | 2 | 15 | 2.4 | 1

Screening data (PubChem BioAssay)
